# miR-21 FLuc: miR-21 reporter, rising signal. Potency, µM (highest dose often 38.3 µM), for the others: at the highest dose reporter change, positive = more light. HeLa miR-21 FLuc reporter, luciferase, 48 h. 340,000 tested, under 10 active; active = well fitted rising curve with a large enough effect; inconclusive = small, poorly fitted or top-dose-only effect; inactive = no such curve, though single readings can be large or run the other way;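 also: % of control where 0% means no effect; miR-21 action dims this reporter so a rising signal means less miR-21 action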
#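 HeLa cells stably expressing CMV-driven firefly luciferase with a downstream miR-21 binding sequence, endogenously expressing miR-21, were treated with titrations (up to about 40uM final) for 48 hours at 37 degree Celsius. Luciferase luminescence was read after lysis.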
# The depositor's hits bear a star. Some of the compounds tested; rates above refer to the full screens.
SMILES,miR-21 FLuc
O=C(Nc1cccc(C(=O)OCc2cc(=O)n3c4c(sc3n2)CCCC4)c1)c1ccc(Cl)cc1,-32%
CC(C)(C)c1ccc(C(=O)Nc2cc(-c3ccccc3)nn2-c2ccccc2)cc1,-1%
COCCCNC(=O)c1oc2c(c1C)-c1nn(Cc3ccccc3Cl)cc1CC2,1%
Cc1c(Cl)cccc1NC(=O)CC(c1ccc(F)cc1)N1Cc2ccccc2C1=O (stereo not drawn),-1%
Cc1cc(=O)[nH]c2nnc(SCc3ccc(Cl)cc3)n12,0%
CCOc1ccccc1NC(=O)c1nn(-c2ccc(OC)cc2)c(=O)c2c1c1ccccc1n2C,2%
CCCCC12CN3CC(C)(CN(C1)C3c1ccc(OCc3ccccc3)cc1)C2=O (stereo not drawn),8%
CCOc1ccc(NC(=O)c2cc(S(=O)(=O)NC3CCCC3)ccc2F)cc1,3%
Cc1ccc(N(Cc2cc3ccccc3[nH]c2=O)C(=O)c2cccc(Cl)c2)cc1,5%
CCOC(=O)C1CCN(Cc2ccccn2)CC1,1%
CCOC(=O)c1sc2nc(C)n(CC(=O)Nc3cccc(Cl)c3)c(=O)c2c1C,-2%
Cc1ccc(C2c3[nH]c4ccccc4c3CCN2C(=O)Nc2ccc(C)c(C)c2)cc1 (stereo not drawn),12%
Cn1cccc1-c1cc2n(n1)CCC(=O)N2CC(=O)Nc1ccc(F)cc1Cl,-18%
CC1CCN(c2nc3c(-c4cccc(Br)c4)nnn3c3ccccc23)CC1,0%
Cc1cccc(NC(=O)Cn2nnc(-c3nc(-c4ccncc4)no3)c2N)c1,-13%
CCCNc1nc(NCc2ccccc2OC)c2cnn(C)c2n1,-1%
Cc1ccc2c(c1)cc1c(=O)n(Cc3cccc(Cl)c3)nc(C)n12,-1%
Cc1ccc(N2CCN(C(=O)c3c(C)oc4ncn(C)c(=O)c34)CC2)c(C)c1,-4%
COc1ccc(Cl)cc1C(=O)NCCS(=O)(=O)N1CCN(c2ccccc2OC)CC1,27%
CCOc1ccccc1NC(=O)CSC1=Nc2ccccc2C2=NC(CC(=O)NC3CCCCC3)C(=O)N12 (stereo not drawn),19%
Cc1ccc(C(CC(=O)Nc2cc(C)cc(C)c2)N2Cc3ccccc3C2=O)cc1 (stereo not drawn),29%
O=C(NCc1ccco1)c1c[nH]c2ccc(S(=O)(=O)Nc3ccc(F)cc3F)cc2c1=O,16%
Cc1ccc(Cl)cc1N1CCN(Cc2nnc(-c3ccc4c(c3)OCO4)o2)CC1,3%
O=C(COc1ccccc1F)Nc1ccc(OCc2cc(=O)n3ccccc3n2)cc1,0%
Cn1nc(C(=O)NCc2ccccc2)c2c1-c1ccccc1SC2,-7%
COc1cc(Cl)c(C)cc1NC(=O)Cn1ncc2c([nH]c3ccccc32)c1=O,3%
COc1ccc(OC)c(S(=O)(=O)NCCc2csc(-c3cccc(F)c3)n2)c1,-1%
CCc1ccc(CN2C(=O)c3ccccc3C2C(=O)NCCc2ccc(OC)c(OC)c2)cc1 (stereo not drawn),-2%
CCOC(=O)c1c(NC(=O)/C(C#N)=C/c2ccccc2)sc2c1CCC2,-1%
CCN(CC)CCOC(=O)c1ccc(NC(=O)c2nn(C)c3c2COc2ccccc2-3)cc1,-3%
Cc1ccc(-n2c(=O)c3sc4ccccc4c3n(CC(=O)NC3CCCC3)c2=O)cc1C,-2%
CCS(=O)(=O)N1CC(=O)N(c2cccc(C)c2C)C(C)(C(=O)NC2CCCCCC2)C1 (stereo not drawn),-12%
Cc1ccc(Cl)cc1N1CCN(C(=O)CN2C(=O)COc3ccc(S(=O)(=O)N4CCOCC4)cc32)CC1,-6%
CCOc1ccc(N2CC(NC(=O)c3cccs3)CC2=O)cc1 (stereo not drawn),0%
COc1ccc(NC(=O)Cn2ccn(-c3ccc(F)c(F)c3)c(=O)c2=O)cc1Cl,-1%
Cc1ccc(CSc2cn(CC(=O)N3CCCCCC3)c3ccccc23)cc1,-1%
COc1cc(NC(=O)CCc2c(C)nc3c(-c4ccc(F)cc4)c(C)nn3c2C)cc(OC)c1OC,-13%
Cc1ccc(-c2nnc(Nc3cccc(Br)c3)c3ccccc23)cc1S(=O)(=O)NCC1CCCO1 (stereo not drawn),12%
CCOC(=O)c1[nH]c(C)c(CCC(=O)NCc2ccccc2Cl)c1C,-6%
CCN1CCN(c2ncc3c(n2)CCN(Cc2ccc(OC(C)C)cc2)C3)CC1,-1%
COc1cccc(Cn2c(=O)n(-c3cccc(Cl)c3)c(=O)c3c4c(sc32)CN(C(C)=O)CC4)c1,14%
O=C(CSc1cn(CC(=O)N2CCCCC2)c2ccccc12)NCc1ccccc1Cl,1%
Cc1ccc(C)c(NC(=O)c2ccc(CN3CC(=O)N4CCCCC4C3=O)cc2)c1 (stereo not drawn),-3%
Cc1ccc(Oc2nc3c(c(=O)n(Cc4ccccc4Cl)c(=O)n3C)n2C)cc1C,-5%
CCOc1ccc(S(=O)(=O)c2cn(CC)c3ccc(F)cc3c2=O)cc1,0%
CCOC(=O)CN1C(=O)C(O)(CC(=O)c2cc(OC)ccc2OC)c2ccccc21 (stereo not drawn),-2%
CCOc1ccc(C(c2c(O)cc(C)n(CCOC)c2=O)N2CCN(c3ccc(F)cc3)CC2)cc1 (stereo not drawn),0%
Cc1ccc(NC(=O)CCS(=O)(=O)c2cccc3nonc23)c(C)c1,-5%
O=C(CCCCCn1c(=O)[nH]c2ccccc2c1=O)NCc1cccc(Cl)c1,9%
Cc1cccc(-n2nnc(-c3nc(-c4cccs4)no3)c2N)c1C,-65%

# More structures:
SMILES,miR-21 FLuc
COc1cc(NS(=O)(=O)c2ccc(NC(=O)C(C)Oc3ccc(Cl)cc3Cl)cc2)nc(OC)n1 (stereo not drawn),-26%
O=C(C1CCCN(S(=O)(=O)c2cccs2)C1)N1CCN(c2cccc(Cl)c2)CC1 (stereo not drawn),22%
O=C(Cn1ncc2c([nH]c3ccccc32)c1=O)NCCCN1CCN(c2ccc(F)cc2)CC1,-2%
Cc1ccc(Cc2nc3ccccc3nc2SCC(=O)NCc2ccccc2Cl)cc1,-2%
COc1ccc(N2CC(C(=O)Nc3ccc(NC(C)=O)cc3)CC2=O)cc1 (stereo not drawn),-2%
COc1cc(NC(=O)CCc2c(C)nc3c4c(C)cc(C)nc4nn3c2C)cc(OC)c1,-1%
CCSc1ccccc1C(=O)Nc1ccc(-c2nc3ccccc3s2)c(O)c1,-60%
CC(C(=O)NCc1ccc(Cl)cc1)n1ccc2cc(S(=O)(=O)N3CCCC3)ccc21 (stereo not drawn),19%
CC(=O)Nc1ccc2nc3c(=O)[nH]c(=O)[nH]c3nc2c1,5%
CCOc1cccc(C(=O)Nc2ccc(-c3nc4ncccc4o3)cc2C)c1,1%
Cc1ccc(CSc2nc3ccc(NC(=O)CC(C)C)cc3s2)cc1,0%
CCOC(=O)C1CCN(CC(=O)N2CCCc3c2c(=O)oc2ccc(OCc4ccccc4)cc32)CC1,0%
CCOC(=O)c1cc(-c2ccccc2)n(CC(=O)NC2CCC(C)CC2)c1C (stereo not drawn),-2%
COCCCNc1nc2c(S(=O)(=O)c3ccc(C)c(C)c3)nnn2c2ccc(Cl)cc12,2%
Cc1nc2ncnn2c(C)c1CCC(=O)NCc1cccc(Cl)c1,6%
Cc1cc(Br)ccc1NC(=O)CN1C(=O)c2cccnc2Sc2ccccc21,-17%
CCOc1ccc2nc(N3CCCC(C(=O)NCc4ccccc4Cl)C3)sc2c1 (stereo not drawn),-28%
CCOc1ccccc1Nc1sc(C(=O)c2ccc(Cl)cc2)c(N)c1C(=O)NCCc1ccccc1,0%
CCCCSc1nnc2[nH]c(=O)cc(C)n12,-11%
CC(C)(C)OC(=O)N1CCC(c2c(C(=O)NCCN3CCc4ccccc4C3)cnn2-c2ccc(F)cc2)CC1,-7%
Cc1ccc(C(=O)O)cc1Nc1nc2ccccc2n2nnnc12,-39%
Cc1ccc(S(=O)(=O)Nc2cccc(-c3cn4cccc(C)c4n3)c2)cc1,3%
CCCOC(=O)c1ccc(Nc2nc3ccccc3nc2-n2nc(C)cc2C)cc1,-2%
COc1ccc(NC(=O)CN(c2ccccc2OC)S(C)(=O)=O)c(OC)c1,-2%
COc1cccc(-c2nc3c(c(SCc4ccccc4)n2)Cc2c(CO)cnc(C)c2O3)c1,-6%
CCCCNC(=O)c1[nH]c2ccccc2c1Sc1ccc(C)cc1,-22%
CN(C)c1ccc(CNC(=O)C2CCN(c3nc4ccccc4[nH]3)CC2)cc1,-6%
Cc1ccc(OC(=O)c2cc(-c3ccc4c(c3)OCCO4)on2)c(C)c1,2%
Cc1cccc(OC(=O)CSc2nnc(-c3ccc4c(c3)OCO4)o2)c1C,0%
CC1CCCCN1Cc1c(O)ccc2c(=O)c(-c3ccc(Cl)cc3)c(C(F)(F)F)oc12 (stereo not drawn),0%

# 2 compounds picked at random from those above, as already listed:
SMILES,miR-21 FLuc
Cc1ccc(S(=O)(=O)Nc2cccc(-c3cn4cccc(C)c4n3)c2)cc1,3%
CCCOC(=O)c1ccc(Nc2nc3ccccc3nc2-n2nc(C)cc2C)cc1,-2%

# Following part
SMILES,miR-21 FLuc
O=C(CCc1nc(-c2cccs2)no1)Nc1ccc([N+](=O)[O-])cc1,2%
COc1ccc(CCNC(=O)CCc2cn(Cc3ccc(F)cc3)c3ccccc23)cc1OC,-5%
CCOc1cccc(C2c3c(oc4ccc(F)cc4c3=O)C(=O)N2CCOC)c1 (stereo not drawn),0%
CCOC(=O)c1cccc(NC(=O)CCC(=O)N2CC(C)Oc3ccc(C)cc32)c1 (stereo not drawn),-20%
CCCCSCCCNC(=O)CN1C(=O)COc2ccc(S(=O)(=O)N3CCCC3)cc21,2%
COc1ccc2sc(N(Cc3cccnc3)C(=O)c3ccc4c(c3)OCCO4)nc2c1,15%
CC(C)(C)OC(=O)N1CCC(c2c(C(=O)N3CCCCC3)cnn2-c2cccc(F)c2)CC1,0%
COc1ccc(N(Cc2cccs2)C(=O)COc2cccc(Cl)c2)cc1,7%
COc1cc(NC(=O)Cn2nc(C(F)(F)F)c3c2CCC3)cc(OC)c1OC,11%
COc1cc(C)ccc1OCCSc1nnc(-c2ccc(C)cc2)o1,-10%

# Given with values ahead of the structure: entries from further up.
miR-21 FLuc | compound
-6% | COc1cccc(-c2nc3c(c(SCc4ccccc4)n2)Cc2c(CO)cnc(C)c2O3)c1
-22% | CCCCNC(=O)c1[nH]c2ccccc2c1Sc1ccc(C)cc1
-6% | CN(C)c1ccc(CNC(=O)C2CCN(c3nc4ccccc4[nH]3)CC2)cc1
2% | Cc1ccc(OC(=O)c2cc(-c3ccc4c(c3)OCCO4)on2)c(C)c1
0% | Cc1cccc(OC(=O)CSc2nnc(-c3ccc4c(c3)OCO4)o2)c1C
0% | CC1CCCCN1Cc1c(O)ccc2c(=O)c(-c3ccc(Cl)cc3)c(C(F)(F)F)oc12 (stereo not drawn)
2% | O=C(CCc1nc(-c2cccs2)no1)Nc1ccc([N+](=O)[O-])cc1
-5% | COc1ccc(CCNC(=O)CCc2cn(Cc3ccc(F)cc3)c3ccccc23)cc1OC
0% | CCOc1cccc(C2c3c(oc4ccc(F)cc4c3=O)C(=O)N2CCOC)c1 (stereo not drawn)
-20% | CCOC(=O)c1cccc(NC(=O)CCC(=O)N2CC(C)Oc3ccc(C)cc32)c1 (stereo not drawn)
2% | CCCCSCCCNC(=O)CN1C(=O)COc2ccc(S(=O)(=O)N3CCCC3)cc21
15% | COc1ccc2sc(N(Cc3cccnc3)C(=O)c3ccc4c(c3)OCCO4)nc2c1
0% | CC(C)(C)OC(=O)N1CCC(c2c(C(=O)N3CCCCC3)cnn2-c2cccc(F)c2)CC1
7% | COc1ccc(N(Cc2cccs2)C(=O)COc2cccc(Cl)c2)cc1
11% | COc1cc(NC(=O)Cn2nc(C(F)(F)F)c3c2CCC3)cc(OC)c1OC
-10% | COc1cc(C)ccc1OCCSc1nnc(-c2ccc(C)cc2)o1

# (more compounds)
SMILES,miR-21 FLuc
COc1cc(NC(=O)CN2Cc3ccccc3C2=O)cc(OC)c1OC,1%
COc1ccccc1OCc1ccc(C(=O)Nc2ccc(C)c(C)c2)o1,-12%
CCOc1ccc(-c2csc(-c3nc(-c4ccc(Br)s4)cs3)n2)cc1,0%
Cc1ccccc1-c1noc(-c2nnn(-c3ccccc3C)c2N)n1,-3%
CC1CCC(NC(=O)c2ccc3c(c2)N(Cc2cccc(F)c2)C(=O)c2ccccc2S3)CC1 (stereo not drawn),-43%
COc1ccc(-c2noc(-c3ccc(N4CCCCC4C)c([N+](=O)[O-])c3)n2)cc1OC (stereo not drawn),-13%
Cc1ccccc1CSc1ncc(Cl)c(C(=O)NCc2ccccc2)n1,2%
CCOC(=O)Cc1c(C)nc2cc(-c3ccc(C(C)(C)C)cc3)nn2c1C,-14%
COc1cccc(NC(=O)CCc2c(C)nc3c4cccnc4nn3c2C)c1,9%
O=C(NC1CCCCC1)c1ccc(CSc2nc3ccncc3n2Cc2ccccc2)cc1,1%
CCCc1ccc(OC(C)C(=O)Nc2sc3c(c2C(=O)OC)CCCCC3)cc1 (stereo not drawn),1%
O=C(CC1N=C2c3ccccc3N=C(SCc3ccc(Cl)cc3)N2C1=O)NCc1cccs1 (stereo not drawn),15%
COc1ccc(-n2cc(C(=O)NCc3cccc(OC)c3)c3ccccc3c2=O)cc1,7%
Cc1ccccc1CNC(=O)c1ccc(CSc2nc3cccnc3n2Cc2ccccc2)cc1,-7%
COc1ccc(NC(=O)CCNS(=O)(=O)c2ccc3c(c2)CCN3C(=O)C2CC2)cc1Cl,8%
Cc1cccc(NC(=O)c2cc3c(C)nn(-c4ccccc4)c3s2)c1,16%
O=C(CN1Cc2ccccc2C1=O)Nc1cc(F)ccc1F,-5%
CC(=O)Nc1ccc(NC(=O)C(NS(=O)(=O)c2ccc(Br)s2)c2ccccc2)cc1 (stereo not drawn),1%
COc1ccc(S(=O)(=O)c2cn(C)c3cc(N4CCCCC4)c(F)cc3c2=O)cc1,-11%

# Screening results from PubChem BioAssay.
